AF4-AF9 inh: inhibitors of AF4 peptide binding to AF9, primary screen, biochemical, AlphaScreen, biotin-AF4 peptide, FLAG-AF9, single point | inhibition, % at 10 µM | 350,000 compounds, 0.47% hits | Protein AF-9 (Homo sapiens), P42568;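 active = every replicate reaching a set inhibition limit, whatever the replicate mean, cut at about 25% in these data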;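 also: 0% = plate neutral control median and 100% = total signal loss; the record names both 10 and 1 µM as test concentration; the first replicate is given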
Target sequence (P42568 whole entry, looked up): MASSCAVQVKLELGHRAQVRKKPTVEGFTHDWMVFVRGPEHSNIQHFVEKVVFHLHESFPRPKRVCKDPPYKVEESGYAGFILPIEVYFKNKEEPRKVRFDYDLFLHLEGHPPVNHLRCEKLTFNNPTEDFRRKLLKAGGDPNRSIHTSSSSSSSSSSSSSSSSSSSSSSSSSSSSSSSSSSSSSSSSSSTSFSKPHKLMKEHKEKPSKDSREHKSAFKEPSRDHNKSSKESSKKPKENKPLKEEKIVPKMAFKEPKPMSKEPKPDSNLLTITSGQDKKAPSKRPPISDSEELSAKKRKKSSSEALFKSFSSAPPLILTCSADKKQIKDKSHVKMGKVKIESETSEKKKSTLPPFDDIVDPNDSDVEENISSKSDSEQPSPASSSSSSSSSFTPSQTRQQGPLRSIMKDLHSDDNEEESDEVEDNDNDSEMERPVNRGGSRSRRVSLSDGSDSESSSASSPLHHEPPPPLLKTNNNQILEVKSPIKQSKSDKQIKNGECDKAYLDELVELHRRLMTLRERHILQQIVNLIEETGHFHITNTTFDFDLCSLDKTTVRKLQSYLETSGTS
FGF22 binding: binders of human FGF22 protein, primary screen, FGF22 synaptogenesis inhibitor project, biophysical, thermal shift, single point. Fibroblast growth factor 22 (Homo sapiens), Q9HCT0. recombinant FGF22 thermal shift, SYPRO orange fluorescence; percent of sucrose octasulfate shift, DMSO zero. calls only at 9.99 µM. 340,000 compounds, 1.5% hits. AID 651658, 2012;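 active = melting point raised past a set limit in the mean and every replicate; three in four hits are not shown here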
Target sequence (Q9HCT0 whole entry, looked up): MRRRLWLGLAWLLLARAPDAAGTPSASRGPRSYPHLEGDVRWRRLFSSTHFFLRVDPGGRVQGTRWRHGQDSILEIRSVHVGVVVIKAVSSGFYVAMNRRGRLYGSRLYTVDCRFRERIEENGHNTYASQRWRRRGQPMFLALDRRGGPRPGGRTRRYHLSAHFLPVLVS
rRNA inh HTS: reduced GFP signal of wild-type E. coli, primary screen, bacterial rRNA inhibitor project, GFP/RFP fluorescence, OD600, single point | GFP signal change (wild-type ribosome), % (no concentration beside the values) | E. coli WT GFP vs humanized-ribosome RFP mutants, 24 h; active compounds read low; DMSO median 0, no signal -100 | 350,000 compounds, 1.6% hits | AID 720706, 2013;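 active = significant combined selectivity score with lowered wild-type GFP, culture density cut under 30%, mutant RFP and density less affected; inactive = any of these conditions unmet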; also: one replicate is shown; some compounds called inactive have numbers as strong as hits
rRNA inh HTS OD600: recorded beside rRNA inh HTS, whose call it bears; OD600 change, %; measured here: OD600 growth;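 optical density of the mix in the first replicate; 0 = DMSO median and -100 = no signal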
rRNA inh HTS RFP: also measured in rRNA inh HTS; calls as there; RFP signal change, %; measured here: RFP humanized mutant strains;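 first replicate; 0 = DMSO median and -100 = no signal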
* = called active by the depositor; i = inactive; x = no result given; & = joins results of further samples. An excerpt (hit frequency here may not be typical).

| smiles | AF4-AF9 inh | FGF22 binding | rRNA inh HTS | rRNA inh HTS OD600 | rRNA inh HTS RFP |
| --- | --- | --- | --- | --- | --- |
| CCCN(C)C[C@H]1Oc2cc(C#CC3CC3)ccc2S(=O)(=O)N([C@H](C)CO)C[C@H]1C | 29 | i | 7 | 7 | 1.6 |
| Cc1noc(C)c1S(=O)(=O)Nc1ccc2c(c1)C(=O)N([C@H](C)CO)C[C@@H](C)[C@@H](CN(C)S(=O)(=O)c1ccc(F)cc1)OCCCC[C@@H](C)O2 | 1.5 | i | 0 | -3 | 1.6 |
| C[C@@H]1CCCCO[C@@H](CN(C)C(=O)CCC(F)(F)F)[C@@H](C)CN([C@@H](C)CO)C(=O)c2cc(NS(=O)(=O)c3ccc(Cl)cc3)ccc2O1 | -1.1 | i | -1 | -5 | -0.8 |
| Cc1noc(C)c1S(=O)(=O)N(C)C[C@@H]1OCCCC[C@@H](C)Oc2ccc(NC(=O)Cc3ccccc3)cc2C(=O)N([C@H](C)CO)C[C@@H]1C | -0.9 | i | 2 | 0 | -0.6 |
| COc1ccc(CNC(=O)C[C@H]2C[C@H](C(=O)N3CCCCC3)[C@@]3(C)c4[nH]c5cc(-c6ccco6)ccc5c4CCN3C2=O)cc1OC | 5.5 | i | 7 | 1 | 9.7 |
| C[C@@H]1CN([C@H](C)CO)C(=O)c2cccc(NS(=O)(=O)c3ccccc3)c2O[C@@H]1CN(C)Cc1ccccc1 | -2.1 | i | 1 | 1 | -1.2 |
| Cc1noc(C)c1NC(=O)Nc1ccc2c(c1)C(=O)N([C@H](C)CO)C[C@H](C)[C@@H](CN(C)S(=O)(=O)c1ccc(Cl)cc1)OCCCC[C@@H](C)O2 | -4.0&1.5 | i | 1&-1 | 4&2 | -1.9&-1.5 |
| COCC#Cc1ccc2c(c1)O[C@@H](CN(C)Cc1ccccc1)[C@@H](C)CN([C@@H](C)CO)S2(=O)=O | 5.3 | i | -4 | -7 | 2.0 |
| N#Cc1ccc(-c2ccc([C@@H]3[C@H](CO)N4C(=O)CNC[C@@H]34)cc2)cc1 | 0.5 | i | -1 | 17 | -1.7 |
| C=CCN(c1ccc(F)cc1)S(=O)(=O)c1cc(C(=O)NC2CC2)ccc1Cl | 0.0 | i | -30 | -65 | -3.4 |
| C[C@H]1CN([C@@H](C)CO)C(=O)c2cccc(NS(=O)(=O)c3ccccc3)c2O[C@@H]1CN(C)Cc1ccc(C(F)(F)F)cc1 | 2.6 | i | 3 | -2 | -2.4 |
| CC1CCCN(S(=O)(=O)c2ccc3c(c2)OCCO3)C1 (stereo not given) | -5.9 | i | 1 | -4 | 0.1 |
| C[C@H](CO)N1C[C@H](C)[C@@H](CN(C)Cc2ccc(Cl)c(Cl)c2)Oc2c(NC(=O)c3ccc(-c4nccs4)cc3)cccc2C1=O | 3.0 | i | -4 | 4 | -0.9 |
| C[C@@H]1CN([C@@H](C)CO)S(=O)(=O)c2ccc(C#CCN(C)C)cc2O[C@H]1CN(C)Cc1ccccn1 | 1.2 | i | -5 | -2 | -2.2 |
| CC(C)NC(=O)Nc1ccc2c(c1)C(=O)N([C@H](C)CO)C[C@@H](C)[C@@H](CN(C)Cc1ccc(-c3ccccc3)cc1)O2 | 8.9 | i | -4 | -14 | 5.3 |
| CCCNC(=O)N1CC2(CN(Cc3cccc(F)c3)C2)c2c([nH]c3cc(OC)ccc23)[C@@H]1CO | 17 | i | -8 | -17 | 2.8 |
| COC(=O)C[C@@H]1CC[C@@H]2[C@@H](COc3ccc(NC(=O)c4ccc(C(F)(F)F)cc4)cc3C(=O)N2C)O1 | -3.7 | i | -2 | -8 | 0.4 |
| Cn1cnc(S(=O)(=O)N[C@H]2CC[C@H](CC(=O)Nc3ccccc3)O[C@H]2CO)c1 | -1.9 | i | -1 | 8 | -0.7 |
| Cc1ccc(CN2CCN(CCCn3cnc4c(OCc5ccccc5)ncnc43)CC2)cc1 | 7.7 | i | -35 | -42 | -2.4 |
| O=C(Nc1ccc(Cl)c(C(F)(F)F)c1)C1Cc2c(-c3ccc4c(c3)OCO4)ccnc2O1 (stereo not given) | -1.0 | i | 2 | 6 | 3.5 |

Whole records from above. Values in the order: AF4-AF9 inh	FGF22 binding	rRNA inh HTS	rRNA inh HTS OD600	rRNA inh HTS RFP
Record of O=C(Nc1ccc(Cl)c(C(F)(F)F)c1)C1Cc2c(-c3ccc4c(c3)OCO4)ccnc2O1 (stereo not given) : -1.0	i	2	6	3.5
Record of C=CCN(c1ccc(F)cc1)S(=O)(=O)c1cc(C(=O)NC2CC2)ccc1Cl : 0.0	i	-30	-65	-3.4
Record of COCC#Cc1ccc2c(c1)O[C@@H](CN(C)Cc1ccccc1)[C@@H](C)CN([C@@H](C)CO)S2(=O)=O : 5.3	i	-4	-7	2.0

The results go on.
| smiles | AF4-AF9 inh | FGF22 binding | rRNA inh HTS | rRNA inh HTS OD600 | rRNA inh HTS RFP |
| --- | --- | --- | --- | --- | --- |
| CS(=O)(=O)N1CCCCC1c1cc(C(=O)Nc2ccc3c(c2)OCO3)no1 (stereo not given) | -1.0 | i | 5 | 12 | 0.6 |
| O=C(C1CCN(CCc2ccccc2)CC1)N1CCOCC1 | -3.6 | x | 5 | 12 | 1.8 |
| C[C@H](CO)N1C[C@H](C)[C@H](CN(C)Cc2ccccn2)Oc2ncc(-c3ccc(F)cc3)cc2C1=O | -2.6 | i | -1 | 10 | -0.8 |
| CC1=C(C(=O)N(C(C)C)C(C)C)CC(CC(=O)NCCN2CCOCC2)C(=O)N1Cc1ccc(C(C)(C)C)cc1 (stereo not given) | 1.3 | i | -2 | -4 | 0.1 |
| COc1ccc(CNS(=O)(=O)c2ccc(N3CCCC3)cc2Br)cc1 | -3.7 | i | -6 | -35 | -7.5 |
| CO[C@@H]1CC[C@H]2CCOc3c(C#N)cccc3C(=O)N(C)CCCC(=O)N(C)C[C@@H]1O2 | 0.2 | i | 0 | 5 | -1.9 |
| C[C@H](CO)N1C[C@H](C)[C@H](CN(C)C)Oc2ccc(NC(=O)Nc3ccc4c(c3)OCO4)cc2CC1=O | 2.6 | i | 1 | 7 | -0.1 |
| O=S(=O)(c1ccccc1)N1CCCCN2[C@H](CO)[C@H](c3ccc(C#Cc4cccnc4)cc3)[C@H]2C1 | -3.2 | i | -13 | -40 | 28 |
| O=C(NCCN1CCCC(O)C1)c1cc(COc2cccc(C(F)(F)F)c2)on1 (stereo not given) | 0.7 | i | 9 | 8 | 2.9 |
| COc1ccc2c3c([nH]c2c1)[C@H](CO)N(C(=O)CN(C)C)CC31CN(Cc2ccccc2)C1 | 4.7 | i | 7 | 8 | -1.3 |

The list continues.
mol	AF4-AF9 inh	FGF22 binding	rRNA inh HTS	rRNA inh HTS OD600	rRNA inh HTS RFP
Cc1noc(C)c1NC(=O)Nc1cccc2c1O[C@@H](CN(C)Cc1ccc(-c3ccccc3)cc1)[C@H](C)CN([C@H](C)CO)C2=O	-1.6	i	-7	-6	0.6
COc1cc(C(=O)N2CCN(c3ccccc3)CC2)c2ccccc2n1	7.3	i	10	-3	27
O=C(C[C@H]1C[C@H]2c3cc(NC(=O)NC4CCCC4)ccc3O[C@H]2[C@@H](CO)O1)NCC1CC1	-0.2	i	-1	-1	-4.4
O=C(Nc1cccc(Oc2ccccc2)c1)C1Cc2c(-c3ccco3)ccnc2O1 (stereo not given)	-1.3	i	-8	-4	0.3
C[C@H]1CN([C@@H](C)CO)C(=O)Cc2cc(NC(=O)Nc3ccc(C(F)(F)F)cc3)ccc2O[C@@H]1CN(C)Cc1ccc(C(F)(F)F)cc1	-13	i	5	12	-0.9
CC(C)NC(=O)N(C)C[C@H]1Oc2ccc(NC(=O)Nc3ccc(C(F)(F)F)cc3)cc2C(=O)N([C@H](C)CO)C[C@H]1C	-2.3	i	2	-6	2.3
CCCCCCCCN1C(=O)N(Cc2ccc(OC)cc2)S(=O)(=O)c2ccc(F)cc21	-3.2	i	3	4	0.5
O=C(C[C@@H]1C=C[C@@H](NC(=O)Nc2cc(F)ccc2F)[C@H](CO)O1)Nc1ccc(-c2ccccc2)cc1	-2.7	i	-1	8	5.2
CCCC(=O)Nc1ccc2c(c1)C(=O)N(C)C[C@@H](OC)[C@H](C)CN(Cc1ccccc1F)[C@@H](C)CO2	0.2	i	-6	-29	3.5
O=C(C[C@H]1C[C@H]2c3cc(NC(=O)Cc4ccncc4)ccc3O[C@H]2[C@H](CO)O1)NCc1cccc(F)c1	6.0	i	-1	13	-3.8
C[C@H]1CN([C@@H](C)CO)C(=O)c2cccc(NC(=O)Nc3ccccc3)c2O[C@H]1CN(C)Cc1ccc(C(=O)O)cc1	-1.1	i	2	7	2.0
CC(=O)Nc1cc(-c2ccc(C(=O)N3CCOCC3)cc2)cn2c(-c3ccc(F)cc3)cnc12	2.0	i	6	12	3.8
Cc1ccc(C)c(N2CCN(C(=O)CCc3nc(-c4ccc(F)cc4)no3)CC2)c1	-2.1	i	-4	-17	-1.7
CN1OC[C@@H]2CN(S(=O)(=O)c3ccccc3)[C@H](c3ccc(-n4ccnc4)cc3)C[C@@H]21	1.3	i	13	7	1.5
CN(C)CC(=O)N[C@@H]1CC[C@@H](CC(=O)NCCN2CCCCC2)O[C@H]1CO	-13	i	3	3	-1.0
C[C@@H]1CCCCO[C@H](CN(C)C(=O)c2ccccc2)[C@@H](C)CN([C@@H](C)CO)C(=O)c2cc(NC(=O)NC3CCCCC3)ccc2O1	-1.1	i	-8	-7	2.2
O=C(C[C@H]1C=C[C@@H](NC(=O)c2ccncc2)[C@@H](CO)O1)NCC1CC1	-1.4&-0.6	i	1&10	1&12	-1.3&2.6
Cc1ccc(-c2cnc3c(c2)C(=O)N([C@@H](C)CO)C[C@@H](C)[C@H](CN(C)C(=O)Cc2ccccc2)O3)cc1	-1.6	i	-8	-10	5.6
O=C(C[C@H]1C=C[C@H](NS(=O)(=O)c2ccccc2)[C@@H](CO)O1)NCc1ccncn1	-2.2	i	2	3	-2.0
COc1cccc(S(=O)(=O)N[C@@H]2CC[C@H](CCN)O[C@@H]2CO)c1	3.9	i	4	4	0.3
CC(=O)N1CC[C@H]2[C@H](CO)Nc3ccc(-c4ccccc4)cc3[C@H]21	-0.4	i	4	18	1.1
O=C(Nc1ccc(F)cc1)N1CCCCN2[C@@H](CO)[C@H](c3ccc(-c4ccncc4)cc3)[C@@H]2C1	3.5	i	-20*	-3.5*	-4.9*
O=C(N[C@H]1CC[C@@H](CCNC(=O)C2CC2)O[C@H]1CO)c1ccccn1	-2.2	i	0	9	-0.8
COc1ccc(CNC(=O)c2cc3c(c(-c4cccc(-c5cccc(C#N)c5)c4)n2)[C@@H](CCO)N([S@](=O)C(C)(C)C)C3)cc1	7.0	i	15	10	26
CNC[C@H]1Oc2c(NS(=O)(=O)c3ccccc3)cccc2C(=O)N([C@H](C)CO)C[C@H]1C	-1.9	i	2	8	0.7
COc1ccc(C(=O)NCC(=O)OCC(=O)c2ccccc2Br)cc1OC	-1.2	i	11	28	1.0
C[C@H](CO)N1C[C@H](C)[C@@H](CN(C)C(=O)CCC(F)(F)F)OCc2cn(nn2)CCCC1=O	-1.1&0.3	i	1&17	2&7	0.7&5.2
CN(C)c1ccc(C=NNc2nc3c([nH]2)c(=O)n(C)c(=O)n3C)cc1	6.2	i	-3	2	-0.8
COc1ccc(NC(=O)Nc2ccc3c(c2)C(=O)N([C@@H](C)CO)C[C@H](C)[C@H](CN(C)S(=O)(=O)c2ccc(F)cc2)OCCCC[C@@H](C)O3)cc1	0.8	i	2	2	-1.5
CO[C@@H](CN(C)C(=O)c1ccc2c(c1)OCO2)[C@@H](C)CN([C@H](C)CO)S(=O)(=O)c1ccc(Cl)cc1	-0.3	i	-3	-18	-3.6
COCC(=O)N1[C@H](CO)[C@H](c2ccccc2)C12CN(C(=O)c1cccc(F)c1)C2	-4.2	i	0	3	-2.0
CC(=O)N(C)C[C@H]1Oc2ncc(-c3cncnc3)cc2C(=O)N([C@@H](C)CO)C[C@H]1C	-5.7	i	3	5	-2.4
N#C[C@H]1[C@H](c2ccccc2)[C@@H](CO)N1S(=O)(=O)Cc1ccccc1	-0.5	i	-1	-4	1.0
CN(C)CC(=O)Nc1ccc2c(c1)[C@H]1C[C@H](CC(=O)NCc3ccc4c(c3)OCO4)O[C@@H](CO)[C@H]1O2	2.4	i	1	2	-0.3

Four of the compounds above, with two lines to a compound:
Each structure is followed by: AF4-AF9 inh | FGF22 binding | rRNA inh HTS | rRNA inh HTS OD600 | rRNA inh HTS RFP
> COc1ccc(C(=O)NCC(=O)OCC(=O)c2ccccc2Br)cc1OC
    -1.2 | i | 11 | 28 | 1.0
> C[C@H](CO)N1C[C@H](C)[C@@H](CN(C)C(=O)CCC(F)(F)F)OCc2cn(nn2)CCCC1=O
    -1.1&0.3 | i | 1&17 | 2&7 | 0.7&5.2
> CN(C)c1ccc(C=NNc2nc3c([nH]2)c(=O)n(C)c(=O)n3C)cc1
    6.2 | i | -3 | 2 | -0.8
> COc1ccc(NC(=O)Nc2ccc3c(c2)C(=O)N([C@@H](C)CO)C[C@H](C)[C@H](CN(C)S(=O)(=O)c2ccc(F)cc2)OCCCC[C@@H](C)O3)cc1
    0.8 | i | 2 | 2 | -1.5

Bioassay records deposited in PubChem BioAssay by Broad Institute.
